# Source: PubChem BioAssay
# Menin MLL FP FL = displaces fluorescein MLL peptide from human menin; Fluorescence polarization, fluorescein-MLL peptide displacement from menin; FP activity change, % at 61.4 µM; 290,000 tested, under 10 active; inconclusive = falling polarisation curve, or a change in total fluorescence; inactive = total fluorescence flat and polarisation flat or rising; no compound was filed as active; the % refers to the polarisation; negative = inhibition;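 also: % of control where 0% means no effect; inhibitors lower the polarisation; unlabelled MLL peptide was the positive control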
# ClpP mod = qHTS Assay for Activators of ClpP; ATP-dependent Clp protease proteolytic subunit (Bacillus subtilis (strain 168)), P80244; purified B. subtilis ClpP, FRET peptide cleavage, 20 min; Potency, µM (highest dose often 57.5 µM), for the others: at the highest dose activity change, negative = active; hit rate 1.9% among 340,000; active = well fitted falling curve with a large enough effect; inconclusive = small, poorly fitted or top-dose-only effect; inactive = no such curve, though single readings can be large or run the other way; also: potency is read from the fitted curve at half-maximal effect; the source files actives as falling curves though it sought activators and does not explain the sign; nearly all actives have a fitted effect of over 65% in size; many hits overshoot -100%
# Target sequence (P80244 whole entry, looked up): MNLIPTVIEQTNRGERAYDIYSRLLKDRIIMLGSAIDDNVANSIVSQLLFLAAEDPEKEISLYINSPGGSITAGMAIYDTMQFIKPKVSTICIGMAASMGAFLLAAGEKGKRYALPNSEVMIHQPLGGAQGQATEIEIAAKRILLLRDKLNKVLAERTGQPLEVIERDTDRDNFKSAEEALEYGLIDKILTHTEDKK
#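 Purified B. subtilis ClpP, 10 microg/mL final in Tris/HCl pH8 with KCl, BSA, glycerol and Tween-20, cleaved an Abz/nitrotyrosine-quenched decapeptide. Fluorescence (ex 320, em 430) was read at 0 and 20 min at room temperature. Delta was normalized to 5.8 microM ADEP and DMSO/no-enzyme controls.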
# CtBP-E1A inh = CtBP/E1A binding inhibition. hit rate 0.49% among 340,000. AlphaScreen GST-E1A/His-CtBP binding, 1536-well; hits give low values; control for the full effect not named in the record. activity change, % (no concentration beside the values); in the data active means activity change below about -65%; inconclusive means about -30% to -65%; inactive means above about -30%; also: % is scaled to controls: 0 for no effect and ±100 for the full control effect; compound concentration not given in the record
#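 Protein mix (5X: 125 nM each GST-E1A, His-CtBP) was incubated with pinned compound 2 h at 37 deg C in dark, in 50 mM Tris pH 8.0 buffer with 300 mM NaCl. Glutathione donor and nickel acceptor beads followed; AlphaScreen signal read after 1 h.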
# Sfp PPTase inh = inhibitors of Bacillus subtilis Sfp phosphopantetheinyl transferase; Q9F4F7; Biochemical Sfp PPTase activity, qHTS; Potency, µM, for inactives: max response, negative = inhibition, actives largely listed as inhibitors; hit rate 3.5% among 310,000; AID 1490; active = well fitted inhibition curve with a large enough effect; inconclusive = small, poorly fitted or top-dose-only effect, or another doubt; inactive = no such curve, though single readings can be large or run the other way;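 also: the enzyme is Sfp with the accession as filed and its product quenches rhodamine fluorescence; potency is read from the fitted curve at half-maximal effect; 0% = enzyme reaction without inhibitor and -100% = no enzyme wells; top concentration of the series not given in the record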
#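 Compounds were incubated with enzyme (final 15 nM) for 15 min at room temperature before substrate addition started the reaction. Fluorescence at 525 nm excitation, 598 nm emission was recorded immediately and after 30 minutes.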
# gsp antag = antagonists of gsp mutant (McCune-Albright syndrome); Potency, µM (series often up to 76.9 µM), for inactives: at the top dose activity change, negative = inhibition, actives largely listed as inhibitors; hit rate 0.4% among 340,000; gsp-mutant cells, cAMP HTRF, 30 min; control for the full effect not named in the record; AID 624288; active = falling curve of any shape with a large fitted effect; inconclusive = falling curve, mostly with a smaller effect; inactive = flat or rising curve; cell line not stated here;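 also: intracellular cAMP measured with PDE inhibitor Ro 20-1724 present during compound exposure; potency is read from the fitted curve at half-maximal effect; % is scaled to controls: 0 for no effect and ±100 for the full control effect; nearly all actives have a fitted effect of over 65% in size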
#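 G418-selected cells were plated in DMEM/10% FBS for 16-24 h at 37C, then treated with compounds plus the PDE inhibitor […] (300 uM solution added) for 30 min at 37C. Intracellular cAMP was measured by HTRF after 30 min lysis at room temperature.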
# TRPV1 potentiator = human TRPV1 potentiation; AID 540277; potentiation, % at 8.33 µM; TRPV1-expressing cells, Fluo-8 calcium influx, capsaicin EC20 potentiation; host cell line not named in the record; control for the full effect not named in the record; hit rate 0.02% among 320,000; Q8NER1; active means potentiation above 80%; inconclusive means 30% to 80%; inactive means below 30%; also: 0% is about no effect
# Target sequence (Q8NER1 whole entry, looked up): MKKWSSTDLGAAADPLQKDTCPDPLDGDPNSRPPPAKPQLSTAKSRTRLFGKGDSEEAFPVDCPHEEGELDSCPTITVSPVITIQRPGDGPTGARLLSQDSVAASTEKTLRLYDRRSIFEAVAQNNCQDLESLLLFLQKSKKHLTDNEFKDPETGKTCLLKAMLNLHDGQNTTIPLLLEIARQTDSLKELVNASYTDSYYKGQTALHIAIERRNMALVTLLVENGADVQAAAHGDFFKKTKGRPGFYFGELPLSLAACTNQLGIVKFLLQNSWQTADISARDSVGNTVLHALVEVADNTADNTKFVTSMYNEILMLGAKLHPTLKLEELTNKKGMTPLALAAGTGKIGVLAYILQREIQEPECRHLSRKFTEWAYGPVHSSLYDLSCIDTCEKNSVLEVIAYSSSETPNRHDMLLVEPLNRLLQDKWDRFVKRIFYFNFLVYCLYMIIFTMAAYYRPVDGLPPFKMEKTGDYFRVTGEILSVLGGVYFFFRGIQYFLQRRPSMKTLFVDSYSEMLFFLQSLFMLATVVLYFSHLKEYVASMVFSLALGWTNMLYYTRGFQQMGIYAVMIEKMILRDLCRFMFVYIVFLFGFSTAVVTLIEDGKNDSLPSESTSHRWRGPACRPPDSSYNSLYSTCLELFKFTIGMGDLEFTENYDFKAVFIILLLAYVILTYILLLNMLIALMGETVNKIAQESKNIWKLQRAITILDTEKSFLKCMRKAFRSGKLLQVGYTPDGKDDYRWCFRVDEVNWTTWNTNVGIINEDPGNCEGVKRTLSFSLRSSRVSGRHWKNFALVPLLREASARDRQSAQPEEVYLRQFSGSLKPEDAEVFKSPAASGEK
#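 Cells expressing TRPV1 were dye-loaded with Fluo-8 and read kinetically: 10 s baseline, 3 min after compound (agonist portion), then 2 min after EC20 capsaicin (allosteric enhancer portion). Calcium-bound dye fluorescence at 480/520 nm.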
# gsp ag = gsp mutant agonism. gsp mutant cells, cAMP HTRF, 30 min; control for the full effect not named in the record. Potency, µM (highest dose often 76.9 µM), for inactives: top-dose activation (cAMP increase), usual class: activators. hit rate 0.13% among 340,000; active = well fitted activation curve with a large enough effect; inconclusive = small, poorly fitted or top-dose-only effect, or another doubt; inactive = no such curve, though single readings can be large or run the other way; cell line not stated here;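 also: phosphodiesterase inhibitor Ro 20-1724 added with compounds to block cAMP breakdown; potency is read from the fitted curve at half-maximal effect; nearly all actives have a fitted effect of over 60% in size; about a fifth of the inactives were tested at one dose only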
#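 Cells in DMEM/10% FBS with G418 were pretreated with compounds in DMSO plus […] (300 uM stock) for 30 min at 37C. cAMP was measured by HTRF (cAMP-d2 plus anti-cAMP antibody-K) after 30 min at room temperature.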
# * marks the source's active call; other numbers are inactive results; ? = inconclusive; / = not tested or not shown; [ ] = another dose, or the depositor's remark.
cpd	smiles	Menin MLL FP FL	ClpP mod	CtBP-E1A inh	Sfp PPTase inh	gsp antag	TRPV1 potentiator	gsp ag
1	CCOC(=O)c1ccc(N=Nc2c(C)[nH]n(-c3ccccc3)c2=O)cc1	-2.2	0.0%	/	-14.8%	4.0%	-10.8	-4.8%
2	COc1ccc(N2C(=O)C(Cl)=C(N3CCN(Cc4ccccc4)CC3)C2=O)cc1	0.3	-1.2%	-24.6	2.1%	-34.9%	-28.0	-25.5%
3	CCCCOC(=O)Nc1ccc(N(C)C)cc1	6.1	-2.2%	-17.7	-17.3%	-5.8%	-12.9	-12.4%
4	O=C(Nc1cccc(C(=O)N2CCOCC2)c1)c1ccccc1Br	0.2	1.3%	3.5	2.0%	6.1%	2.2	-0.1%
5	Cn1cc(C(=O)NC2CCCCCCC2)c(=O)c2cc(S(=O)(=O)N3CCCC3)ccc21	5.6	-0.8%	3.6	-2.0%	0.5%	-16.9	-13.5%
6	CCCNC(=O)c1ccc(-c2nn(C)c(=O)c3ccccc23)cc1	0.5	/	-7.2	11.9%	0.7%	4.8	-41.7%[inhibitor]
7	CC[C@]1(C(=O)OC)[C@H]2C(=O)N(Cc3ccccc3)C(=O)[C@H]2[C@H]2CN=C(SCc3ccc(C(=O)OC)cc3)N21	/	1.3%	-1.0	/	-14.1%	/	/
8	COc1ccc(C(=O)Cn2ccsc2=NC(C)=O)cc1	-0.6	/	-2.4	24.1%	-6.2%	-0.2	-13.4%[15.4 µM]
9	C=CCn1c(=N)c(C(=O)NCCCOC)cc2c(=O)n3ccccc3nc21	-0.5	6.31µM*	-2.0	12.9%	2.4%	0.6	?
10	Brc1cccc(OCCN2CCCCC2)c1	3.2	0.5%	2.8	?	-7.5%	-4.4	14.3%[15.4 µM]
11	CCC(=O)NNC(=O)CCC(=O)Nc1cccc(Cl)c1C	-1.1	/	/	17.7%	3.8%	4.9	-23.0%[15.4 µM]
12	CCOc1cc(/C=N\NC(=O)c2ccc(C)nc2)ccc1OC(=O)c1ccc(F)cc1	-5.1	/	5.1	16.2%	4.5%	10.4	-16.5%
13	COc1ccc(NC(=O)CN(C)C(=O)c2sc3cc(Cl)ccc3c2Cl)cc1	/	28.2µM*	-0.1	/	-10.0%	3.5	?
14	CCc1ccccc1N1C(=O)CC(Sc2nccc(C)n2)C1=O (stereo not given)	1.8	-0.2%	/	1.4%	0.1%	11.9	2.6%
15	CCO[C@@H]1OC(C(=O)N2CCN(Cc3ccc4c(c3)OCO4)CC2)=C[C@H](c2csc3ccccc23)[C@H]1CCCO	1.3	1.1%	-17.0	3.0%	-19.5%	-4.6	/
16	Cc1cccc(-c2cc(C(=O)Nc3c(C)n(C)n(-c4ccccc4)c3=O)c3ccccc3n2)c1	/	0.4%	-1.9	-5.9%	-15.1%	4.9	5.8%[15.4 µM]
17	O=C(CSc1n[nH]c(-c2ccccc2Cl)n1)NCc1cccc(C(=O)O)c1	-2.9	/	3.6	15.4%	-0.8%	-1.8	?
18	CN(C)c1ccc(NC(=O)COC(=O)Cn2nnc3ccccc32)cc1	4.8	25.1µM*	-3.2	6.1%	?	5.1	2.7%
19	CCc1ccc(OCC(=O)OCC(=O)c2c(N)n(C)c(=O)n(C)c2=O)cc1	0.3	/	11.1	4.7%	/	4.0	17.9%[15.4 µM]
20	COc1cccc(C(O)c2cnc(C(C)C)n2C)c1 (stereo not given)	-1.5	/	-1.0	27.1%	-12.9%	1.2	2.4%[15.4 µM]
21	CCOC(=O)C1=C(C)OC(N)=C(C#N)C1c1c(C)nn(-c2ccc(C)cc2)c1Cl (stereo not given)	4.7	/	/	-2.3%	/	2.4	/
22	CC1(C(=O)Nc2nccs2)Cc2ccccc2C(=O)O1 (stereo not given)	2.5	-1.5%	6.4	5.6%	3.1%	-9.5	-25.5%
23	CCOc1ccc(/C=C2\CCC(C3CCCC3)C2=O)cc1 (stereo not given)	5.3	/	8.0	2.8%	0.4%	1.2	1.5%
24	CCOC(=O)N1CCN(c2nc(-c3cccs3)cc(C(F)(F)F)n2)CC1	8.1	-5.5%	3.8	2.8%	1.4%	?	-57.9%
25	Cc1ccc(NS(=O)(=O)c2cccc(C(=O)NNC(=O)NC3CCCCC3)c2)c(C)c1	4.9	1.4%	1.4	-13.0%	6.6%	1.7	-44.9%[inhibitor]
26	CCC(=O)N1CCc2cc(Br)cc(S(=O)(=O)CCC(=O)NCc3ccco3)c21	1.8	-2.1%	-6.7	-0.8%	1.4%	?	15.6%
27	CC1CCCCN1C(=O)CN1CCN(S(=O)(=O)c2ccc(Br)cc2Cl)CC1 (stereo not given)	/	0.5%	0.3	/	-6.0%	-24.5	-1.5%
28	N#C/C(=C/Nc1ccccc1F)S(=O)(=O)c1ccc(Cl)cc1	-1.2	/	2.1	4.1%	-26.4%	16.6	6.4%
29	CCCCn1c(=O)c(C(=O)N/N=C/c2ccc(F)cc2)c(O)c2ccccc21	-2.5	/	/	-9.1%	/	-1.2	/
30	O=C(CNc1ccc2ccccc2c1)NNC1=NCCC1	6.4	4.0%	/	?	5.9%	-5.8	11.8%
31	O=C(CN1C(=O)C2CCCCC2C1=O)OCC(=O)c1ccc(F)cc1 (stereo not given)	/	-1.5%	-0.4	/	7.2%	-1.3	-17.9%
32	COc1ccc(CCN2CC(C(=O)NCc3cnn(C)c3)CCC2=O)cc1 (stereo not given)	/	-0.1%	5.4	/	/	/	27.7%
33	COc1ccc(C(=O)NCc2nnc(SCC(=O)N3CCc4ccccc43)n2C2CCCCC2)cc1	4.0	0.4%	1.5	0.9%	6.8%	-0.8	-1.4%
34	CC(Cc1cccs1)NC(=S)Nc1ccc(F)cc1 (stereo not given)	7.7	/	0.2	-0.1%	14.0%	-17.6	-0.9%
35	Cc1cc(C)cc(OCc2ccc(C(=O)NN)o2)c1	1.2	-1.1%	/	14.4%	-4.7%	-29.1	28.1%
36	Cc1ccc2nc(N3C(=O)CNC3=S)sc2c1	10.8	/	?	-29.4%	7.0%	5.5	-1.4%[15.4 µM]
37	COCCCNC(=O)c1ccc(CS(=O)(=O)c2ccc(OC)cc2)o1	4.3	1.3%	5.5	10.2%	0.8%	1.6	?
38	CCOc1ccc(S(=O)(=O)Nc2cccc(C(=O)NCC3(N4CCCCC4)CCCCC3)c2)cc1	/	-3.1%	-3.8	/	-0.3%	7.4	-5.8%
39	Cc1ccc(C)c2[nH]c(=O)c(CCNC(=O)c3ccc4c(c3)OCO4)cc12	1.5	-9.5%	3.5	-16.8%	-1.8%	11.5	-17.9%
40	CC1CN(c2ccc([N+](=O)[O-])c(NCCOc3ccc(Cl)cc3)c2)CC(C)N1 (stereo not given)	-4.5	0.8%	/	?	1.7%	-1.2	-11.8%

41. Cc1csc(NC(=O)CNS(=O)(=O)c2cccs2)n1
42. Cc1ccc(Cl)cc1N1CCN(C(=O)c2noc(C)c2[N+](=O)[O-])CC1
43. Cc1ccc(C2=NOC(C)(c3nnc(-c4cccc(Cl)c4)o3)C2)cc1 (stereo not given)
44. COc1ccccc1-c1noc(CCC(=O)Nc2cccc(C(F)(F)F)c2)n1
45. O=[N+]([O-])c1ccc(C=Nc2ccc(Cl)c([N+](=O)[O-])c2)s1
46. CCN(CC(=O)Nc1c(F)cccc1F)C(=O)C1CCN(C(=O)c2ccc(Cl)cc2)CC1

entry no. | 41 | 42 | 43 | 44 | 45 | 46
Menin MLL FP FL | 1.2 | / | / | 1.8 | 1.1 | /
ClpP mod | -5.1% | 1.2% | -2.0% | 0.2% | / | -7.9%
CtBP-E1A inh | -8.5 | -13.4 | 10.8 | 5.2 | / | 13.9
Sfp PPTase inh | -2.4% | 5.7% | / | 2.1% | -5.3% | /
gsp antag | 4.4% | -1.3% | -0.5% | ? | / | -15.4%
TRPV1 potentiator | -8.4 | -0.4 | / | 0.0 | 16.6 | -6.6
gsp ag | -14.0% | 7.3% | / | -16.9% | / | -26.2%

47. CC1=C(C(=O)Nc2cc(C(=O)NCCC(C)C)ccc2C)SCCO1
48. Cc1cc(NC(=O)c2cc3nc4c(c(C(F)(F)F)n3n2)CCc2ccccc2-4)no1
49. C(=N\Nc1nc(N2CCCCCC2)nc(N2CCCCCC2)n1)/c1ccccc1
50. COc1ccc(OCCC(=O)NCCN2CCOCC2)cc1
51. O=C(NCc1cccnc1)c1cc(-c2ccco2)on1
52. CC(=O)c1ccc(N(C(=O)Cn2nnc3ccccc32)C(C(=O)NCc2ccccc2)c2ccccn2)cc1 (stereo not given)

entry no. | 47 | 48 | 49 | 50 | 51 | 52
Menin MLL FP FL | -1.3 | 1.4 | 0.9 | -0.9 | ? | 6.0
ClpP mod | -1.5% | / | -1.7% | / | -23.5% | 0.6%
CtBP-E1A inh | -21.9 | / | / | 12.6 | 5.0 | 0.4
Sfp PPTase inh | 9.2% | 14.5% | -2.5% | 12.6% | ? | -6.8%
gsp antag | 11.2% | / | -25.0% | 7.6% | -2.2% | -20.3%
TRPV1 potentiator | -40.5 | 0.9 | -14.4 | 0.4 | 18.5 | -1.6
gsp ag | 5.6% | / | -56.8%[inhibitor] | -0.6%[15.4 µM] | -32.6% | 5.5%

# A draw from above in order of heavy-atom count, smallest number first.
50. COc1ccc(OCCC(=O)NCCN2CCOCC2)cc1
49. C(=N\Nc1nc(N2CCCCCC2)nc(N2CCCCCC2)n1)/c1ccccc1
48. Cc1cc(NC(=O)c2cc3nc4c(c(C(F)(F)F)n3n2)CCc2ccccc2-4)no1
52. CC(=O)c1ccc(N(C(=O)Cn2nnc3ccccc32)C(C(=O)NCc2ccccc2)c2ccccn2)cc1 (stereo not given)

entry no. | 50 | 49 | 48 | 52
Menin MLL FP FL | -0.9 | 0.9 | 1.4 | 6.0
ClpP mod | / | -1.7% | / | 0.6%
CtBP-E1A inh | 12.6 | / | / | 0.4
Sfp PPTase inh | 12.6% | -2.5% | 14.5% | -6.8%
gsp antag | 7.6% | -25.0% | / | -20.3%
TRPV1 potentiator | 0.4 | -14.4 | 0.9 | -1.6
gsp ag | -0.6%[15.4 µM] | -56.8%[inhibitor] | / | 5.5%

# This is a random part of the collection; overall some 5.3% were active at least once.
